Bioassay records deposited in PubChem by National Center for Advancing Translational Sciences (NCATS).
ClpP mod – qHTS Assay for Activators of ClpP; Potency, µM (highest dose often 57.5 µM), without a hit: at the top dose activity change, negative = active; purified B. subtilis ClpP, FRET peptide cleavage, 20 min; actives 1.9% (n = 340,000); ATP-dependent Clp protease proteolytic subunit (Bacillus subtilis (strain 168)), P80244; active = well fitted falling curve with a large enough effect; inconclusive = small, poorly fitted or top-dose-only effect; inactive = no such curve, though single readings can be large or run the other way; note: potency is the fitted concentration of half-maximal effect; the source files actives as falling curves though it sought activators and does not explain the sign; nearly all actives have a fitted effect of over 65% in size; many hits overshoot -100%
Target sequence (P80244 whole entry, looked up): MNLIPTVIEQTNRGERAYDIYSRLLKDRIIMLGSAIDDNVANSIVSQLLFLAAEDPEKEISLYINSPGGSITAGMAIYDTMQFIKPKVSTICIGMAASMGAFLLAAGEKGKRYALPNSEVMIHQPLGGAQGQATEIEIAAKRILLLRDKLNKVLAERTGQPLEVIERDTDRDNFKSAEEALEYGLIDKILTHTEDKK
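ClpP 10 microg/mL final, pH 8 Tris/KCl buffer with BSA, glycerol, Tween-20; compound pinned in; FRET-FV substrate; RT 20 min; Ex320/Em430; ΔFRET vs ADEP 5.8 microM, DMSO, no enzyme.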
gsp ag – agonists of gsp mutant (McCune-Albright syndrome). Potency, µM (doses to about 76.9 µM), without a hit: at the top dose activation (cAMP increase), usual class: activators. AID 624287. actives 0.13% (n = 340,000). gsp mutant cells, cAMP HTRF, 30 min; control for the full effect not named in the record; active = well fitted activation curve with a large enough effect; inconclusive = small, poorly fitted or top-dose-only effect, or another doubt; inactive = no such curve, though single readings can be large or run the other way; cell line not stated here;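 note: phosphodiesterase inhibitor Ro 20-1724 added with compounds to block cAMP breakdown; potency is the fitted concentration of half-maximal effect; nearly all actives have a fitted effect of over 60% in size; about a fifth of the inactives were tested at one dose only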
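Cells in DMEM/10% FBS with G418 were pretreated with compounds in DMSO plus […] (300 uM stock) for 30 min at 37C. cAMP was measured by HTRF (cAMP-d2 plus anti-cAMP antibody-K) after 30 min at room temperature.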
gsp antag – antagonists of gsp mutant (McCune-Albright syndrome) | gsp-mutant cells, cAMP HTRF, 30 min; control for the full effect not named in the record | Potency, µM (top dose mostly 76.9 µM), inactives show at the top dose activity change, negative = inhibition, actives largely listed as inhibitors | actives 0.4% (n = 340,000); active = falling curve of any shape with a large fitted effect; inconclusive = falling curve, mostly with a smaller effect; inactive = flat or rising curve; cell line not stated here;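 note: intracellular cAMP measured with PDE inhibitor Ro 20-1724 present during compound exposure; potency is the fitted concentration of half-maximal effect; % is set by controls: 0 for no effect and ±100 for the full control effect; nearly all actives have a fitted effect of over 65% in size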
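Cells in G418 medium, seeded 16-24 h, 37C; buffer exchange to DPBS + 1 mM CaCl2, 0.5 mM MgCl2, 0.05% BSA; cpds in DMSO + […] (300 uM stock), 30 min 37C; HTRF cAMP detection.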
Sfp inh – blocks B. subtilis Sfp PPTase activity; Potency, µM, without a hit: max response, negative = inhibition, hits mostly inhibitors; Q9F4F7; Biochemical Sfp PPTase activity, qHTS; actives 3.5% (n = 310,000); active = well fitted inhibition curve with a large enough effect; inconclusive = small, poorly fitted or top-dose-only effect, or another doubt; inactive = no such curve, though single readings can be large or run the other way;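 note: the enzyme is Sfp with the accession as filed and its product quenches rhodamine fluorescence; potency is the fitted concentration of half-maximal effect; 0% = enzyme reaction without inhibitor and -100% = no enzyme wells; top concentration of the series not given in the record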
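Compounds were incubated with enzyme (final 15 nM) for 15 min at room temperature before substrate addition started the reaction. Fluorescence at 525 nm excitation, 598 nm emission was recorded immediately and after 30 minutes.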
Menin-MLL FL inh – inhibitors of human menin-MLL interaction, wild-type MLL peptide; Fluorescence polarization, fluorescein-MLL peptide displacement from menin; FP activity change, % at 61.4 µM; 290,000 tested, under 10 active; AID 1766; inconclusive = falling polarisation curve, or a change in total fluorescence; inactive = total fluorescence flat and polarisation flat or rising; no compound was filed as active; the % refers to the polarisation; negative = inhibition;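 note: % of control where 0% means no effect; inhibitors lower the polarisation; unlabelled MLL peptide was the positive control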
D2 PAM – human D2 receptor positive allosteric modulation; actives 0.23% (n = 360,000); DiscoveRx D2 beta-arrestin cells, luminescence, 90 min; 100% = 57 uM dopamine signal; potentiation, % (concentration not given with the values); active = potentiation of 50% or more; inconclusive = 30% to 50%; inactive = 30% or less;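 note: compound concentration not given in the record; tested on top of an EC20 dose of dopamine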
Target sequence (P14416 whole entry, looked up): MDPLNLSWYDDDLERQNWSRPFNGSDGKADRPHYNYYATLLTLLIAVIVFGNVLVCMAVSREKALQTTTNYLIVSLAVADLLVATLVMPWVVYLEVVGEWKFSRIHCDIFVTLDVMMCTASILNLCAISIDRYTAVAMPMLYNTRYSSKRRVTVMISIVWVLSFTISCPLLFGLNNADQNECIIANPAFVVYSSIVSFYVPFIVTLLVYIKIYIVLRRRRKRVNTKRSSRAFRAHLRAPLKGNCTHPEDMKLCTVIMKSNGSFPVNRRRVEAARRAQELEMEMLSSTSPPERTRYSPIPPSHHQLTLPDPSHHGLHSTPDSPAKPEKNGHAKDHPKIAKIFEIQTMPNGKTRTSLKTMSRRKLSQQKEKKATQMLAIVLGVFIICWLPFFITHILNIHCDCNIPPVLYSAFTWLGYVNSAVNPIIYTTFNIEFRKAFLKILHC
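PathHunter D2 cells, attached overnight at 37 deg C, received compound in DMSO plus dopamine at EC20 (50 nM final) for 90 min at 37 deg C. Beta-arrestin recruitment was read as luminescence after 1 h with detection reagent at ambient temperature.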
TRPV1 potentiator – human TRPV1 potentiation; Q8NER1; TRPV1-expressing cells, Fluo-8 calcium influx, capsaicin EC20 potentiation; host cell line not named in the record; control for the full effect not named in the record; potentiation, % at 8.33 µM; actives 0.02% (n = 320,000); AID 540277; active means potentiation above 80%; inconclusive means 30% to 80%; inactive means below 30%; note: 0% is about no effect
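Fluo-8 calcium influx in TRPV1-expressing cells, kinetic read (ex 480/em 520 nm). Compound added and read 3 min for agonist activity, followed by capsaicin at EC20 final and 2 min further read for enhancement.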
An asterisk follows results filed as active; ? = inconclusive; · = not tested or not shown; & = joins results of further samples; ! = not confirmed by another sample; [ ] = remark or other dose.

SMILES | ClpP mod | gsp ag | gsp antag | Sfp inh | Menin-MLL FL inh | D2 PAM | TRPV1 potentiator
CC(NC(=O)Nc1cccc(Cl)c1)C(c1cccs1)N1CCCC1 (stereo not given) | · | -28% | 18% | 2% | -9.5 | -15 | -28
COc1ccc(-c2nc(NC(=O)CSCCO)sc2C)cc1 | · | -2%[15.4 µM] | 1% | 6% | 3.3 | -8 | -17
C=CCOc1c(Br)cc(/C=C2/NC(=S)N(C(C)=O)C2=O)cc1OC | · | 3%[15.4 µM] | -26% | ? | ? | -3 | 22
CCOC(=O)C1=CC[C@H]2c3c(c4ccccc4n3C)C(=O)C1N2S(=O)(=O)c1ccc(C)cc1 | -2.4% | -29% | -31% | · | · | -2 | -1
NC(=NC(=O)c1ccc(OC(F)(F)F)cc1)c1ccc(C(F)(F)F)cn1 | -0.4% | -2%[15.4 µM] | 7% | 18% | 0.6 | -9 | -3
COC(C(=O)Nc1ccnn1C1CCN(Cc2ccc(C)s2)CC1)c1ccccc1 (stereo not given) | -0.5% | -6% | -4% | 13% | 0.4 | -21 | 16
Cc1ccc(S(=O)(=O)NNC2CC(=O)N(c3ccc(Br)cc3)C2=O)cc1 (stereo not given) | -0.8% | -1% | 79%[activator] | 2% | -2.7 | -14 | 7
O=C(COc1ccc(F)cc1Cl)N(Cc1nnc(-c2ccccc2Cl)o1)C1CC1 | -3.3% | 4%[15.4 µM] | -8% | · | · | -14 | ·
c1ccc(Cn2cc(CNc3ccccc3)nn2)cc1 | -0.1% | · | 4% | 9% | 2.5 | -5 | -6
Cc1ccc(/C=C2\SC(=S)N(Cc3ccccc3)C2=O)o1 | -1.3% | -17% | 6% | ? | ? | -2 | -15
CSc1ccccc1NC(=O)CN1C(=O)C2CC=CCC2C1=O (stereo not given) | -5.2% | -5%[15.4 µM] | 13% | · | · | -7 | -1
COc1ccc(-c2cc3nc(C)cc(N4CCN(C(=O)c5cccnc5)CC4)n3n2)cc1 | ? | -1% | · | · | · | -1 | ·
COc1ccc(NC(=O)N(CCO)Cc2cc3c(C)cc(C)cc3[nH]c2=O)cc1 | -11% | -22% | 0% | -10% | 0.8 | 7 | 6
CC(=O)Nc1ccc(S(=O)(=O)NCC(=O)Nc2ccc3c(c2)OCO3)cc1 | -33% | 6%[15.4 µM] | -1% | · | · | -16 | ·
Cc1cc(Cl)ccc1Oc1ncc(CN2CCN(c3ccccc3)CC2)s1 | -1.3% | ? | 1% | 7% | 2.5 | 17 | 1
CSc1nc2ccc(NS(=O)(=O)c3ccc(Cl)s3)cc2s1 | -3.7% | ? | -31% | 1% | 0.5 | -12 | 2
CN(C(=O)c1ccco1)c1nc(CC(=O)Nc2ccccc2)cs1 | 1.4% | 21% | -5%[15.4 µM] | -25% | 1.9 | -9 | 4
Cc1cccc(-n2cc(CN3CCN(Cc4nccn4C)CC3)c(-c3cccc(F)c3)n2)c1 | -12% | -68%[inhibitor] | -4% | 7% | 5.8 | -15 | -10
C/C(=C\c1ccccc1)C(=O)n1nnc2ccccc21 | 0.0% | 1% | 3% | 7% | -2.7 | -6 | 30
COC(=O)c1c(NC(=O)CSc2nnnn2-c2ccccc2)sc2c1CCCC2 | -1.9% | -51%[inhibitor] | -15% | -16% | -0.4 | 0 | -6
O=C(Nc1ccc(Cl)c(S(=O)(=O)N2CCOCC2)c1)c1cc(=O)[nH]c2ccccc12 | -14% | 6% | -2% | · | · | -8 | 5
Cc1cc(NC(=O)CSc2nnc(Cc3ccccc3)o2)no1 | -4.5% | -6% | -3% | -16% | 1.4 | -1 | 17
Cn1c(SCc2ccc(C#N)cc2)nnc1-c1cccc(Cl)c1 | -1.7% | -17% | 2% | 21% | 2.7 | 6 | 2
COc1ccccc1NC(=O)C1CCN(S(=O)(=O)c2ccc3c(c2)CC(C)N3C(C)=O)CC1 (stereo not given) | 0.0% | 7% | -32% | 12% | 1.7 | -13 | 2
COc1ccc(-c2csc(NC(=O)CSc3nc(SC)ns3)n2)cc1 | -1.0% | -8% | -9% | 19% | -0.3 | -12 | 3
COc1ccc(N(C(=O)c2cnccn2)C(C(=O)NCc2ccccc2)c2ccc(O)cc2)cc1 (stereo not given) | · | -10%[15.4 µM] | 8% | -4% | 2.3 | -4 | 15
CCCOc1ccc(N2C(=O)CC(SC(=N)N3N=C(c4ccccc4)CC3c3ccccc3)C2=O)cc1 (stereo not given) | -13% | -6% | 9% | 7% | -3.1 | -4 | 4
CN(c1ccc(C(=O)Nc2cccc([N+](=O)[O-])c2)cc1)S(C)(=O)=O | · | 0%[15.4 µM] | · | -5% | 1.0 | -26 | -10
O=S(=O)(NCCc1ccccc1)c1cccc2cccnc12 | · | 3% | -2% | 9% | -3.0 | 2 | 10
Cc1ccc(CNc2ncnc3c2cnn3C2CCCCO2)cc1 (stereo not given) | · | -19% | 5% | · | · | 1 | ·

Looked up above:
In D2 PAM, `C/C(=C\c1ccccc1)C(=O)n1nnc2ccccc21` reads -6
In gsp ag, `Cn1c(SCc2ccc(C#N)cc2)nnc1-c1cccc(Cl)c1` reads -17%

(list continues)
SMILES | ClpP mod | gsp ag | gsp antag | Sfp inh | Menin-MLL FL inh | D2 PAM | TRPV1 potentiator
O=[N+]([O-])c1cccc(CNCc2ccccc2)c1 | · | 13%[15.4 µM] | 8% | 7% | -3.1 | -16 | -10
O=C(CSc1nnc(CN2CCCC2)n1-c1ccccc1)c1ccc2c(c1)OCO2 | 0.0% | -8%[15.4 µM] | -10% | · | · | -14 | ·
NC1=NC(=O)C(=Cc2ccccc2)S1 | -9.1% | 15% | 2% | · | · | -16 | ·
O=S(=O)(/N=C(/Nc1ccc(F)cc1F)c1ccccc1)c1ccc(Br)cc1 | · | · | · | 1% | 1.6 | · | -3
Cn1c(=O)c2nc(-c3ccccc3)c(-c3ccccc3)nc2n(C)c1=O | -9.4% | -9%[15.4 µM] | -6% | · | · | -8 | ·
Cc1cc(OC(C)C(=O)Nc2ccc(S(=O)(=O)Nc3onc(C)c3C)cc2)cc(C)c1Cl (stereo not given) | 0.7% | 11% | -23% | 22% | -0.1 | 25 | 5
O=C(COc1c(Br)cc(Br)c2cccnc12)Nc1ccccc1F | -0.7% | -15% | -6% | -13% | 0.8 | 0 | -1
COc1ccc(C(=O)COc2ccc(C)cc2NC(C)=O)cc1 | · | -2%[15.4 µM] | -9% | 15% | -0.8 | -11 | -17
COc1cc(C(=O)OCC(=O)NCCN2C(=O)CSC2=O)ccc1OCc1c(C)noc1C | -5.9% | 13% | -3% | 17% | -0.2 | -1 | 5
CCCn1cc2c(c1-c1ccc(C)cc1)c(=O)n(C)c(=O)n2C | · | -8% | 0% | -4% | -2.5 | -6 | 3
CCCNC(=O)Nc1ccc(C)cc1C | 1.0% | 4% | 2% | ? | -16 | -10 | ?
COCCNC(=O)CN(c1ccc(C)cc1)S(=O)(=O)c1ccc(SC)cc1 | -3.6% | -4% | 5% | 7% | -1.7 | -14 | -10
CCOc1ccccc1-c1cc(C(=O)N/N=C/c2ccc3c(c2)OCO3)c2ccccc2n1 | 0.7% | -3%[15.4 µM] | -10% | 11% | 1.2 | -15 | 5
CCOC(=O)c1cnn(-c2nc3c(C)cccc3s2)c1C(F)(F)F | 28µM* | -3% | 0% | -2% | 0.9 | -9 | -8
Nc1ccccc1C(=O)/C=C/c1ccc2c(c1)OCO2 | -6.0% | · | 4% | ? | 5.9&1.9 | -9 | 1
Cc1nc(-c2ccccc2)sc1C(=O)CSc1ccccc1 | -19% | 14% | 2% | -20% | 0.4 | -4 | -4
COc1cc2c(cc1OC)CN(CC(=O)Nc1cccc(C(F)(F)F)c1)CC2 | -1.0% | -1% | 14% | 11% | 4.8 | -20 | -19
CC(C)c1ccc(-c2nnn(CC(=O)N3CCCCC3)n2)cc1 | 0.4% | -40%[inhibitor] | 16% | -17% | 0.3 | 24 | -11
COc1ccc(CNC(=O)[C@@H](NC(=O)C2CCN(C(=O)[C@@H](N)Cc3ccccc3)CC2)C(C)C)cc1 | 1.7% | · | 14% | 1% | 5.1 | -23 | 11
COC(=O)C1=C(C)NC(C)=C(C(=O)OC)C1C(=O)OCC(=O)N1c2ccccc2CC1C (stereo not given) | -15% | ? | -16%&3% | 23% | 3.3 | -3&-11 | 1
Cc1ccc(S(=O)(=O)N2CCOC23CCN(S(=O)(=O)c2cccs2)CC3)cc1 | -2.6% | -1%[15.4 µM] | -11% | · | · | -12 | -6
COCCN(CCOC)C(=O)c1c[nH]c2ccc(S(=O)(=O)N(C)c3ccc(F)cc3)cc2c1=O | 32µM* | -3% | 6% | 24% | 3.3 | -2 | -1
O=C1c2ccccc2S(=O)(=O)c2cc(N3CCN(c4ccccn4)CC3)ccc21 | 0.7% | · | 10% | · | · | -8 | ·
O=C(Nc1nccs1)c1ccc(Cl)c([N+](=O)[O-])c1 | 0.0% | -2% | -27% | -3% | -0.7 | -2 | 5
CC1CC(C)CN(S(=O)(=O)c2cc3c4c(c2)CCC(=O)N4CCC3)C1 (stereo not given) | -1.5% | -31%[inhibitor] | -1% | · | · | -5 | 2
NC(=O)N1c2ccccc2CC(=O)c2ccccc21 | 3.3% | · | 4% | 35µM*! | ? | 1 | ?
O=C1CC(N2CCN(c3ccc(Cl)c(Cl)c3)CC2)C(=O)N1 (stereo not given) | -0.5% | -22% | -4% | 17% | 1.3 | -11 | 27
CC(C)CC#Cc1ccc2c(c1)O[C@H](CN(C)C(=O)Cc1ccncc1)[C@H](C)CN([C@H](C)CO)S2(=O)=O | -5.7% | -35%[inhibitor] | · | · | · | -13 | ·
CCOC(=O)Cc1csc(NC(=O)/C=C\c2ccccc2)n1 | · | -15%[15.4 µM] | -13% | 14% | 0.2 | -9 | -16
CCOC(=O)c1[nH]c2ccc(OC)cc2c1NC(=O)/C=C/c1ccc2c(c1)OCO2 | 0.5% | -21%[15.4 µM] | -1% | 6% | · | 0 | ?
Cn1nc(C(=O)OCC(=O)c2ccccc2)c2ccccc2c1=O | 0.7% | -19% | -9% | · | · | -10 | ·
